Compound activity from PubChem BioAssay.
Mtb H37Rv – Mycobacterium tuberculosis H37Rv growth inhibition, cell based, confirmatory dose response (AID 1949). actives 1.6% (n = 100,000). most inactive calls were filed without a number and no value below 0 was filed. one-dose inhibition, % at 10 µg/mL; IC50 in µg/mL for titrated hits;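 active = confirmed in a dose series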;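 also: bacteria grown 7 days with compound before Alamar blue readout; 0% = untreated bacteria and 100% = reference antibiotic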
* hit, by the source's call; i = inactive. Not all compounds are listed, so the mix of outcomes need not match the whole.

SMILES	Mtb H37Rv
O=C(CSc1nnc(Cc2ccccc2)o1)Nc1ccccc1Cl	i
Cc1ccc(C(=O)NC(=S)Nc2cccc(-c3nc4ccccc4o3)c2C)cc1C	1%
COc1ccccc1COc1ccc2c(C)c(C)c(=O)oc2c1C	i
O=C(O)CCC(=O)Nc1ccc(Br)c2cccnc12	i
CCn1c(SCC(=O)c2ccc3ccccc3c2)nnc1-c1ccc(N)cc1	i
O=C(Nc1ccc2c(c1)ncn2C1CCCCC1)c1ccccc1	2%
COc1ccc(-c2cc(C(F)F)n3ncc(C(=O)NCC4CCCO4)c3n2)cc1 (stereo not given)	i
O=C(COc1ccc(Br)cc1)Nc1ccccc1N1CCOCC1	i
O=C(Cc1cccs1)Nc1cccc(C(=O)Nc2ccco2)c1	i
CCc1cccc(CC)c1NC(=O)CSCc1ccccc1Cl	i
S=c1[nH]nc(CCn2c3ccccc3c3ccccc32)n1-c1ccccc1	i
FC(F)(F)c1ccccc1CNCCc1c[nH]c2ccccc12	i
Cc1ccccc1-c1nnc(SCC(=O)c2ccc(Br)cc2)n1C	i
COc1ccc(N2CCN(CC(O)COc3ccccc3C(C)=O)CC2)cc1 (stereo not given)	3%
CC(NC(=O)c1ccccc1Cl)c1ccccc1 (stereo not given)	i
FC(F)(F)c1cc(-c2cccs2)nc(N2CCOCC2)n1	4%
CC12CC3(C)CC(C)(C1)CC(NC(=O)NC(C)(C)C)(C2)C3	i
O=C(Oc1ccc(C(=S)N2CCOCC2)cc1Cl)c1ccccc1F	i
C=CCn1c2ccccc2c2nnc(SCc3ccc4nonc4c3)nc21	i
CCOc1c(Cl)cc(C(=O)N(Cc2ccc(CC)cc2)C2CCS(=O)(=O)C2)cc1Cl (stereo not given)	i
Cc1ccc(Sc2c(C)nn(S(=O)(=O)c3ccc(F)cc3)c2C)cc1	i
Cc1cc(C)c(NC(=O)Cc2cccs2)c(C)c1	i
CS(=O)(=O)N(CC(=O)NC1CCCCC1)c1ccc(Cl)cc1	i
Cc1ccc2nc(/C(C#N)=C/c3cccs3)[nH]c2c1	i
COC(=O)c1c(NC(=O)c2cccnc2)sc(C)c1-c1ccccc1	i
COc1ccccc1NC(=O)c1ccc(COc2ccc3c(c2)CCC3)cc1	i
Cc1cc(Cl)ccc1OCCCC(=O)Nc1ccc(S(=O)(=O)N2CCCC2)cc1	1%
CCN1CCCC1CNCc1c(Cl)cccc1Cl (stereo not given)	i
Cc1ccc(OCCOCCNCCN)c([N+](=O)[O-])c1	i
CCCOc1ccccc1C1C2=C(CCCC2=O)N(CC(=O)O)C2=C1C(=O)CCC2	i

The closing 8 compounds of the part before come first, to join the parts:
SMILES	Mtb H37Rv
CS(=O)(=O)N(CC(=O)NC1CCCCC1)c1ccc(Cl)cc1	i
Cc1ccc2nc(/C(C#N)=C/c3cccs3)[nH]c2c1	i
COC(=O)c1c(NC(=O)c2cccnc2)sc(C)c1-c1ccccc1	i
COc1ccccc1NC(=O)c1ccc(COc2ccc3c(c2)CCC3)cc1	i
Cc1cc(Cl)ccc1OCCCC(=O)Nc1ccc(S(=O)(=O)N2CCCC2)cc1	1%
CCN1CCCC1CNCc1c(Cl)cccc1Cl (stereo not given)	i
Cc1ccc(OCCOCCNCCN)c([N+](=O)[O-])c1	i
CCCOc1ccccc1C1C2=C(CCCC2=O)N(CC(=O)O)C2=C1C(=O)CCC2	i
COc1ccc(Oc2c(C)oc3cc(OC)ccc3c2=O)cc1	i
CC1CCCCN1Cc1nc2c(c(=O)n(C)c(=O)n2C)n1Cc1ccc(Br)cc1 (stereo not given)	0%
COc1ccc(NC(=O)CN(C)S(=O)(=O)c2ccccc2)cc1OC	6%
COc1ccc(CSc2nnc(-c3ccccn3)n2C)cc1	i
C#CCOc1c(Cl)cc(/C=C(/C#N)c2nc3ccccc3[nH]2)cc1OCC	2%
CCn1nccc1C(=O)Nc1ccc(C)cc1F	i
CCOc1ccc(C(=O)c2ccc(N3CC(C)OC(C)C3)c([N+](=O)[O-])c2)cc1 (stereo not given)	10%
Cc1ccccc1C(=O)NC(=S)Nc1ccc(C#N)cc1	i
Cc1ccc(C)c(Cn2c(C)nc3ccccc32)c1	1%
Cc1cccc(NS(=O)(=O)Cc2ccccc2)c1C	i
CCC(=O)Nc1cc(NC(=O)CC)cc(C(=O)O)c1	i
COC(=O)C(Oc1cc2oc(=O)c3c(c2cc1Cl)CCC3)c1ccccc1 (stereo not given)	i
CCOc1ccc(NC(=O)CSc2cc(C)c3ccccc3n2)cc1	i
CC(C)OCCCNC(=O)C(=O)NCc1cccnc1	i
O=Cc1ccc(OCc2cccc(C(=O)O)c2)c(Cl)c1	i
COc1ccc(C)cc1NC(=S)NC(=O)CC(C)(C)C	24%
C=CCOc1c(Br)cc(C=C2C(=O)NC(=S)NC2=O)cc1OC	i
COc1cc(C(=O)Nc2nc(-c3cc(C)ccc3C)cs2)c(Br)c(OC)c1OC	i
CCCn1c(NCc2ccccc2O)nc2ccccc21	i
C=CCSc1nnc(NC(=O)CSc2nnnn2-c2ccccc2)s1	i
CS(=O)(=O)N(CC(=O)NC1CCCCC1)c1cccc2ccccc12	i
COc1cccc(C(=O)Nc2cc(Cl)c(O)c(Cl)c2)c1	i
Cc1ccc(S(=O)(=O)N2CCCC2C(=O)Nc2ccc(O)cc2)cc1 (stereo not given)	i
CCCn1c(SCC(=O)Nc2ccc(C)cc2)nnc1-c1ccncc1	4%
CCC(=O)NCc1ccc(CNC(=O)CC)cc1	i
S=c1[nH]nc(-c2ccc(Cl)cc2)n1-c1ccc(Br)cc1	2%
CC(=O)c1cccc(-n2c(C)c(C(C)=O)c(C(C)=O)c2C)c1	i
S=C(Nc1ccc2c(c1)OCO2)Nc1ccn(Cc2ccccc2)n1	i
C=CCn1c(=N)c(C(=O)OCC)cc2c(=O)n3cc(C)ccc3nc21	i
Cc1c(OC(C(=O)O)c2ccccc2)ccc2c1oc(=O)c1ccccc12 (stereo not given)	i
O=C1CC(N(Cc2ccc3c(c2)OCO3)C(=S)Nc2ccccc2)C(=O)N1c1ccc(F)cc1 (stereo not given)	i
O=C(Nc1ccc(N2CCOCC2)cc1)c1cccc(S(=O)(=O)N2CCCC2)c1	i
Cc1nc2cc(Cl)ccc2n1Cc1ccccc1	3%
CCC(Sc1nc(N)cc(=O)[nH]1)C(=O)Nc1ccc(S(N)(=O)=O)cc1 (stereo not given)	i
Cc1ccc(C(C)C)c(OCC(=O)n2nc(C)cc2C)c1	i
COc1ccc(Cl)cc1NC(=O)NCc1ccccc1F	i
CCCC(C)NC(=O)CN(c1ccccc1OC)S(C)(=O)=O (stereo not given)	3%
C=CCNC(=O)CN(c1cc(OC)ccc1OC)S(C)(=O)=O	i
COc1ccc(N(CC(=O)Nc2ccccc2F)S(C)(=O)=O)cc1OC	i
COc1ccc(C2CC(=O)C3=C(C2)Nc2ccccc2NC3c2c[nH]c3ccccc23)cc1 (stereo not given)	i
O=C(Nc1nc2ccc(S(=O)(=O)N3CCCC3)cc2s1)C(c1ccccc1)c1ccccc1	2%
CN(C(=O)COc1ccc(-c2nn(C)c(=O)c3ccccc23)cc1)C1CCCCC1	5%
COc1ccc2c(c1)C(NC(C)=O)C(=O)N2C (stereo not given)	i
COc1ccc(C(=O)NCc2nnc(SCC(=O)Nc3ccc(I)cc3C(C)C)n2C)cc1	i
CS(=O)(=O)N(CC(=O)Nc1ccccc1C(=O)N1CCOCC1)c1cccc(Cl)c1Cl	i
COc1cccc(C(=O)Nc2nnc(-c3ccncc3)s2)c1OC	3%
Cc1sc2nc(SCC(=O)NCc3ccc4c(c3)OCO4)n(-c3ccccc3)c(=O)c2c1C	i
COc1ccccc1N1CCN(C(=O)C(C)Oc2ccc(C)c(C)c2)CC1 (stereo not given)	3%
CC(C(=O)O)c1n[nH]c(=O)c2ccccc12 (stereo not given)	i
Cc1cc(NC(=O)c2ccc([N+](=O)[O-])cc2)cc(C)c1O	1%

Taken from above:
Under Mtb H37Rv, `CN(C(=O)COc1ccc(-c2nn(C)c(=O)c3ccccc23)cc1)C1CCCCC1` has the entry 5%
Under Mtb H37Rv, `Cc1cc(NC(=O)c2ccc([N+](=O)[O-])cc2)cc(C)c1O` has the entry 1%

(next part)
SMILES	Mtb H37Rv
N#C/C(=C\c1ccc(N2CCCC2)cc1)c1ccc([N+](=O)[O-])cc1	i
Cc1cc(C(=O)N2CCC3(CC2)OCCO3)sc1-c1ccccc1	3%
COC(=O)c1ccc(OC(=O)c2cc(OC)cc(OC)c2)cc1	2%
CC(C)(C)c1ccc(OCC(=O)Nc2ccc(S(=O)(=O)Nc3ccccn3)cc2)cc1	i
COc1ccc(NC(=O)CCC2CCCCC2)cc1OC	i
C=CCNc1nc(-c2ccc(F)cc2)cs1	9%
CSc1cccc(NC(=O)CN(c2ccc(C(C)C)cc2)S(C)(=O)=O)c1	i
O=C(NCc1nc(-c2ccccc2)cs1)NC1(c2ccccc2)CC1	0%
Cc1ccc(NS(=O)(=O)c2ccc(NS(=O)(=O)c3c(C)cc(C)cc3C)cc2)cc1	i
Cc1ccc(C(=O)NC2CC2)c(F)c1F	i

3 entries from above, as labelled records:
> CC(C)(C)c1ccc(OCC(=O)Nc2ccc(S(=O)(=O)Nc3ccccn3)cc2)cc1
  Mtb H37Rv = i

> COc1ccc(NC(=O)CCC2CCCCC2)cc1OC
  Mtb H37Rv = i

> N#C/C(=C\c1ccc(N2CCCC2)cc1)c1ccc([N+](=O)[O-])cc1
  Mtb H37Rv = i

(cont.)
SMILES	Mtb H37Rv
C=CCNC(=O)c1ccc(C(=O)NCC=C)cc1	i
Cc1cc(C)nc(N(C#N)CC(=O)N2c3ccccc3CCc3ccccc32)n1	i
COc1ccc(N(CC(=O)N2CCN(c3ccccc3OC)CC2)S(C)(=O)=O)cc1Cl	3%
O=C(O)COc1ccc(NC(=O)COc2ccc(Br)cc2)cc1	i
O=C(C1=C(O)C(=O)N(CCc2ccccc2)C1c1ccncc1)c1cc2ccccc2o1 (stereo not given)	i
CC(C)(C)c1[nH]nc2c1C(c1ccc([N+](=O)[O-])o1)C(C#N)=C(N)O2 (stereo not given)	44%
CCCCc1cc(=O)oc2cc(OC(=O)c3ccco3)ccc12	i
CCn1cc(Br)c(C(=O)Nc2ccccc2OC)n1	i
Fc1ccc(CSc2ncccn2)cc1	3%
Cc1cc(C)cc(NC(=S)NNC(=O)c2ccc(C(C)(C)C)cc2)c1	i
COc1cccc(NC(=O)c2cccc(NC(=O)c3ccccc3Cl)c2)c1	4%
CC(=O)NC(c1ccc(Cl)cc1)c1cc([N+](=O)[O-])c2cccnc2c1O (stereo not given)	i
CCOc1ccc(NC(=O)c2cccc(S(=O)(=O)N3CCCCCC3)c2)cc1	i
CC(=O)Nc1ccc(-n2c(C)cc(C=O)c2C)cc1	9%
Oc1ccc(CNc2cccc(C(F)(F)F)c2)c2cccnc12	i
COC(=O)CCCC(=O)Nc1ccccc1C(=O)OC	i
CCOC(=O)c1c(-c2ccccc2)csc1NC(=O)C1CC1	1%
CCOC(=O)C1CCN(c2ccc([N+](=O)[O-])cc2S(=O)(=O)N2CCOCC2)CC1	i
O=c1oc2cc(OCc3cccc(Br)c3)c(Cl)cc2c2c1CCC2	3%
CCC(C)NCCCOc1ccc(C(=O)OC)cc1 (stereo not given)	0%
CCc1cccc(CC)c1NC(=O)c1ccccc1Br	11%
Nc1ncnc(Nc2ccccc2C(F)(F)F)n1	i
Cc1cc(OCC(=O)Nc2ccc(C(=O)O)cc2)cc(C)c1Cl	i
COC(=O)c1c(NC(=S)Nc2ccn(Cc3c(F)c(F)c(F)c(F)c3F)n2)sc(C(=O)N(C)C)c1C	i
CCOC(=O)N1CCN(C(=S)Nc2cc(OC)c(OC)cc2C(=O)OC)CC1	i
COc1cccc(NC(=S)N2CCN(C/C=C/c3ccccc3)CC2)c1	i
Cc1ccc(S(=O)(=O)N(CC(=O)Nc2cccc(N(C)S(C)(=O)=O)c2)c2ccc(Cl)cc2)cc1	i
COc1cccc(CN2CCC(C(=O)N3CCN(Cc4ccccc4)CC3)CC2)c1OC	i
O=C(CCC(=O)N1CCOCC1)Nc1nc(-c2cc3ccccc3oc2=O)cs1	i
Cc1cc(C)cc(C(=O)Nc2ccc(N3CCOCC3)c(Cl)c2)c1	7%
N#Cc1ccc(NC(=O)c2cncc(Br)c2)cc1	i
C=CCn1c(SCC(=O)Nc2cccc(OC)c2)nc2sc(C)c(C)c2c1=O	i
COc1ccc(C(=O)NC(=S)Nc2nc(-c3cccc4ccccc34)cs2)cc1	i
COc1ccc(N/C(=N/c2nc(CSc3ccc(Cl)cc3)cc(=O)[nH]2)NC(=O)c2ccc(Cl)cc2)cc1	i
CCN(CC)C(=O)C1=C(C)NC(=S)NC1c1ccccc1 (stereo not given)	i
CC(=O)NC(=S)Nc1ccc(NC(=O)c2ccc(C)cc2Cl)cc1	48%
CC(C)(C)c1ccc(C(=O)NC(=S)Nc2cccc(C#N)c2)cc1	i
COC(=O)C1(OC)COc2ccccc2O1 (stereo not given)	0%
O=C(COc1ccc([N+](=O)[O-])cc1)Nc1ccc2oc(-c3ccc(F)cc3)nc2c1	i
Clc1cccc(-c2nnc3sc(-c4cccs4)nn23)c1	i
Cn1c(=O)c2ncn(CC(=O)NCc3ccccn3)c2n(C)c1=O	i
COC(=O)C1=C(C)NC(=S)NC1c1cccc(Br)c1 (stereo not given)	i
COc1ccc(S(=O)(=O)N2CCCCCC2)cc1OC	i
CC(C)(C)c1ccc(C(=O)NC(=S)Nc2ccc(Cl)c(C(=O)O)c2)cc1	i
CC(=O)c1ccc(-c2ccc(C(C)=O)cc2)cc1	3%
COc1ccc(CNC(=S)Nc2ccc([N+](=O)[O-])cc2)cc1OC	i
CCOC(=O)c1ccccc1NC(=O)C(C)N(c1cc(C)cc(C)c1)S(C)(=O)=O (stereo not given)	i
CCS(=O)(=O)N1CCN(Cc2cc(OC)ccc2OC)CC1	i
OCc1cn(Cc2ccccc2Cl)c2ccccc12	i

Quoted at random: four records from the list, in no set order.
SMILES	Mtb H37Rv
CC(C)(C)c1ccc(C(=O)NC(=S)Nc2ccc(Cl)c(C(=O)O)c2)cc1	i
OCc1cn(Cc2ccccc2Cl)c2ccccc12	i
COc1ccc(CNC(=S)Nc2ccc([N+](=O)[O-])cc2)cc1OC	i
Cn1c(=O)c2ncn(CC(=O)NCc3ccccn3)c2n(C)c1=O	i
